NPYLR7 agonist: mosquito NPYLR7 agonism; 270,000 tested, 0.15% active; activation, % at 10 µM; HEK293T NPYLR7/Galpha15, GCaMP6s calcium fluorescence; AID 1259423; in the data active means activation above about 40%;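 further: 0% = vehicle and 100% = reference agonist at the receptor; some compounds past the cut are filed as inactive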
NPYLR7 agonist max-min: second read-out of NPYLR7 agonist, no call of its own (marks repeat the call); activation, %; measured here: Max-Min RFU normalised activation; some inactives read as strong as hits;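 span of the calcium signal over five minutes; 0% = vehicle and 100% = native peptide agonist; compound fluorescence can raise it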
An asterisk follows results filed as active; & = joins results of further samples. An excerpt (hit frequency here may not be typical).

Screening O=C(c1ccc2c3c(cccc13)CC2)C1CCCN(Cc2cccc(OCCO)c2)C1 (centres undefined) returned NPYLR7 agonist 0 and NPYLR7 agonist max-min -9.
For CCOc1ccc(C(C)=O)cc1CSc1nc(N)cc(=O)[nH]1 the results were NPYLR7 agonist -2 and NPYLR7 agonist max-min -4.
For Cc1nc2ccccc2nc1N1CCN(C(=O)c2c(F)cccc2F)CC1 the results were NPYLR7 agonist 15 and NPYLR7 agonist max-min 8.
For Cc1ccc(F)cc1CNC1CCc2c(c(C(=O)N(C)Cc3ccco3)nn2C)C1 (centres undefined) the results were NPYLR7 agonist 16 and NPYLR7 agonist max-min 4.
`Cc1ccc2oc(-c3c(C)cccc3N)nc2c1` gave NPYLR7 agonist 4 and NPYLR7 agonist max-min 0.
Screening N#Cc1ccc(-c2cccnc2)[nH]c1=O returned NPYLR7 agonist -5 and NPYLR7 agonist max-min -8.
For CN(Cc1ccc2nsnc2c1)C(=O)c1cn(Cc2ccc(F)cc2Cl)nn1 the results were NPYLR7 agonist 1 and NPYLR7 agonist max-min 0.
For CCc1noc(C(C)Sc2nnc(C3CC3)s2)n1 (centres undefined) the results were NPYLR7 agonist -1 and NPYLR7 agonist max-min -2.
For OC(COCC1CC=CCC1)Cn1cnc2ccccc21 (centres undefined) the results were NPYLR7 agonist 3 and NPYLR7 agonist max-min 0.
Screening N#CC(C(=O)CCc1ccc(Cl)cc1)C(=O)NCC1CCCO1 (centres undefined) returned NPYLR7 agonist -4 and NPYLR7 agonist max-min -6.
C#Cc1cccc(N(C(=O)CCNC(=O)C(C)(C)C)C(C)C)c1 was read as NPYLR7 agonist 1 and NPYLR7 agonist max-min 8.
Screening Cc1ccc(-n2nc(C(C)(C)C)cc2NC(=O)CN(Cc2ccccc2)C(=O)c2ccccc2C)c(C)c1 returned NPYLR7 agonist -1 and NPYLR7 agonist max-min 0.
`Cc1ccc(S(=O)(=O)NC(=O)C2(C)CCN2C(=O)CC2CC2)nc1` (centres undefined) gave NPYLR7 agonist 1 and NPYLR7 agonist max-min 0.
`FC(F)(F)c1cccc(Nc2nc(-c3ccccc3)c3cc(Cl)ccc3n2)c1` gave NPYLR7 agonist -5 and NPYLR7 agonist max-min -9.
`CN(C)c1ccc(NC(=O)C2CCC2)cc1CN(CC1CCCO1)C(=O)c1ccco1` (centres undefined) gave NPYLR7 agonist -3 and NPYLR7 agonist max-min 4.
`Cc1cc(C)n(CC(C)NCCN(C)S(C)(=O)=O)n1` (centres undefined) gave NPYLR7 agonist 9 and NPYLR7 agonist max-min 9.
CS(=O)(=O)N(C(=O)c1ccc(OC(F)(F)F)cc1)C1CCC(O)CC1 (centres undefined) was read as NPYLR7 agonist 4 and NPYLR7 agonist max-min 3.
`CCCc1cc2c(cc1NC(=O)c1ccc(Br)cc1)OCO2` gave NPYLR7 agonist 7 and NPYLR7 agonist max-min 6.
For O=[N+]([O-])c1ccc(C(=NO)C23CN4CN(CN(C4)C2)C3)cc1 the results were NPYLR7 agonist 8 and NPYLR7 agonist max-min 5.
For Cc1c(-c2csc(CCN3CCOC3=O)n2)oc2ccccc12 the results were NPYLR7 agonist 15 and NPYLR7 agonist max-min 9.
For CCS(=O)(=O)CCSc1n[nH]c(-c2ccc(Cl)cc2)n1 the results were NPYLR7 agonist 9 and NPYLR7 agonist max-min 9.
Cc1cnc(C(=O)Nn2c(C)nc3sc4c(c3c2=O)CCCCC4)cn1 was read as NPYLR7 agonist -1 and NPYLR7 agonist max-min 0.
CCCCc1ccc(C2=N/C(=C\C=C\c3ccccc3OC)C(=O)O2)cc1 was read as NPYLR7 agonist -3 and NPYLR7 agonist max-min -4.
`O=C(COCc1ccccc1)Nc1nnc(SCC(=O)c2ccc(F)c(F)c2)s1` gave NPYLR7 agonist 21 and NPYLR7 agonist max-min 30.
Screening Cc1cccn2c(=O)c3cc(C(=O)NC4CC(C)CC(C)(C)C4)n(C)c3nc12 (centres undefined) returned NPYLR7 agonist -2 and NPYLR7 agonist max-min 4.
O=C1NCC2(CCCN(C(=O)C3CCN(Cc4ccco4)CC3)C2)O1 (centres undefined) was read as NPYLR7 agonist 9 and NPYLR7 agonist max-min 10.
CN(Cc1cccc(-n2cccn2)c1)C(=O)c1cn(Cc2ccccc2F)nn1 was read as NPYLR7 agonist 17 and NPYLR7 agonist max-min 9.
Screening O=C(NCCn1nc(-c2ccccc2)ccc1=O)c1ccc(Br)cc1 returned NPYLR7 agonist -3 and NPYLR7 agonist max-min -3.
`CN(Cc1cc(-c2ccccc2)on1)C(=O)c1cc(C2CC2)[nH]n1` gave NPYLR7 agonist 16 and NPYLR7 agonist max-min -2.
`Cn1cc(C2CN(C(=O)c3ccc(Br)s3)CCO2)cn1` (centres undefined) gave NPYLR7 agonist -1 and NPYLR7 agonist max-min 2.
For CC(C)C(=O)N1N=C(c2ccccc2)CC1c1ccc2nccnc2c1 (centres undefined) the results were NPYLR7 agonist 0 and NPYLR7 agonist max-min 3.
`Cn1c(=O)n(Cc2cccc3ccccc23)c(=O)c2c1nc1oc(C(C)(C)C)cn12` gave NPYLR7 agonist 2 and NPYLR7 agonist max-min 5.
Screening Cc1oc(NC(=O)CN2C(=O)S/C(=C/c3cccs3)C2=O)c(C#N)c1C returned NPYLR7 agonist 10 and NPYLR7 agonist max-min 5.
`CC(C)Cc1noc(CCCNC(=O)Nc2cccc(Cl)c2)n1` gave NPYLR7 agonist 4 and NPYLR7 agonist max-min -3.
For CCOC(=O)c1[nH]c(=O)[nH]c1CN1[C@@H]2CC[C@H]1CN(C)C(=O)C2 the results were NPYLR7 agonist 0&3 and NPYLR7 agonist max-min -1&1.
`COc1ccc(OCc2nc(CSc3ccc(Cl)cc3)cs2)cc1` gave NPYLR7 agonist 2 and NPYLR7 agonist max-min 1.
Screening O=C1CN(S(=O)(=O)c2cc(F)ccc2F)CC2c3cccc(F)c3CCN12 (centres undefined) returned NPYLR7 agonist 0 and NPYLR7 agonist max-min 13.
`c1cnn(CC2CN(Cc3cc4n(n3)CCCNC4)CCCO2)c1` (centres undefined) gave NPYLR7 agonist 1 and NPYLR7 agonist max-min -1.
Cc1nc2sccn2c1-c1csc(Nc2cccc(O)c2)n1 was read as NPYLR7 agonist -13 and NPYLR7 agonist max-min -20.
CCOC(=O)c1nn(-c2ccccc2)c(=O)c2c(N)scc12 was read as NPYLR7 agonist -3 and NPYLR7 agonist max-min -4.
For CCC(C)CCCC[N+]1=C2SCCCN2C(O)(c2ccc(OC(F)F)cc2)C1 (centres undefined) the results were NPYLR7 agonist 3 and NPYLR7 agonist max-min 1.
`CCCN1C(=O)COCc2cc(-c3cccc(C#N)c3)ccc21` gave NPYLR7 agonist 2 and NPYLR7 agonist max-min -2.
For COC(=O)C(C)n1cnc2c(nnn2Cc2ccc(F)cc2)c1=O (centres undefined) the results were NPYLR7 agonist 8 and NPYLR7 agonist max-min 12.
O=C(C=C1SCCS1)C1CC1c1ccccc1 (centres undefined) was read as NPYLR7 agonist 14 and NPYLR7 agonist max-min 18.
For O=C(N/N=C\c1cccc2ccccc12)c1n[nH]c2c1CCC2 the results were NPYLR7 agonist 6 and NPYLR7 agonist max-min 10.
For CC(C)Cn1c(CN2CCSCC2)cnc1S(=O)(=O)CC1CCCO1 (centres undefined) the results were NPYLR7 agonist 12 and NPYLR7 agonist max-min 4.
`CCN1CCN(CCC(=O)N2CCSCC2c2ccccc2)CC1` (centres undefined) gave NPYLR7 agonist -6 and NPYLR7 agonist max-min -6.
Screening O=C(COc1ccccc1)Nc1ccc(OCc2cccs2)cc1 returned NPYLR7 agonist 8 and NPYLR7 agonist max-min 4.
For O=C(/C=C/c1ccccc1)N(Cc1ccccn1)c1nc2ccc(F)cc2s1 the results were NPYLR7 agonist 4 and NPYLR7 agonist max-min -6.
`O=[N+]([O-])c1ccn(-c2nc(-c3ccccc3)cc(C(F)(F)F)n2)n1` gave NPYLR7 agonist 2 and NPYLR7 agonist max-min -2.
`O=S(=O)(NN=C1c2ccccc2-c2ccccc21)c1ccccc1` gave NPYLR7 agonist -2 and NPYLR7 agonist max-min -4.
OCCC1CN(Cc2cccc3nonc23)CCN1Cc1ccccc1F (centres undefined) was read as NPYLR7 agonist -3&13 and NPYLR7 agonist max-min -1&6.
`CCNC(=O)N(Cc1ccc(F)cc1)Cc1cc(NC(=O)COC)ccc1N(C)C` gave NPYLR7 agonist -3 and NPYLR7 agonist max-min 1.
Screening C=CCC(O)(CC=C)c1ccc(CN(CCOC)Cc2cccc(OC)c2)o1 returned NPYLR7 agonist 0 and NPYLR7 agonist max-min 6.
Screening CCOc1ccccc1-c1nccn1-c1cnc2ccccc2c1 returned NPYLR7 agonist 3 and NPYLR7 agonist max-min 1.
`CN1CCN(C(=O)c2ccccc2Cn2cncn2)c2ccccc21` gave NPYLR7 agonist 5 and NPYLR7 agonist max-min 4.
Screening O=S1(=O)CC2NC(=S)N(CCc3cc4ccccc4[nH]3)C2C1 (centres undefined) returned NPYLR7 agonist 2 and NPYLR7 agonist max-min 43.
`Cc1sc2nc(C3CC3)nc(N3CCN(C(=O)c4cccc(Br)c4)CC3)c2c1C` gave NPYLR7 agonist 0 and NPYLR7 agonist max-min 7.
O=C(NN1C(=O)C2C3CC(C(Br)C3Br)C2C1=O)c1ccncc1 (centres undefined) was read as NPYLR7 agonist -5 and NPYLR7 agonist max-min -11.
COc1cccc(-c2cc(C(=O)NC(c3ccccc3)c3ccccc3)nc3cc(C(C)(C)C)nn23)c1 was read as NPYLR7 agonist -1 and NPYLR7 agonist max-min 6.
Screening Oc1cc(-c2nc3ccccc3s2)cc2c1OCCN(CCn1cccn1)C2 returned NPYLR7 agonist 5 and NPYLR7 agonist max-min 3.
`O=C(COCc1ccccc1)N1CCOC(COCc2c(Cl)cccc2Cl)C1` (centres undefined) gave NPYLR7 agonist -7 and NPYLR7 agonist max-min -10.
O=C(c1ccc(Cl)c(Cl)c1)N(CCN1CCOCC1)CC(=O)N(Cc1cccn1Cc1ccccc1)C1CC1 was read as NPYLR7 agonist 9 and NPYLR7 agonist max-min 18.
`NC(=NOC(=O)N1c2ccccc2Sc2ccccc21)c1ccc([N+](=O)[O-])cc1` gave NPYLR7 agonist -11 and NPYLR7 agonist max-min -18.
For O=C(NCC1CC1)C1Cc2c(-c3ccc4c(c3)OCO4)ccnc2O1 (centres undefined) the results were NPYLR7 agonist -3 and NPYLR7 agonist max-min -5.
For CCC1c2cccn2CCN1CC(=O)NCc1ccc(C(=O)OC)o1 (centres undefined) the results were NPYLR7 agonist -5 and NPYLR7 agonist max-min -5.
O=C(NCCCOc1cccc([N+](=O)[O-])c1)Nc1ccc(Cl)c(C(F)(F)F)c1 was read as NPYLR7 agonist 18 and NPYLR7 agonist max-min 11.
`O=C(NCCc1cccs1)c1ccccc1Br` gave NPYLR7 agonist 0 and NPYLR7 agonist max-min -1.
Screening COCc1nn2c(nnc3c(=O)n(C4CCCC(C)C4C)ccc32)c1-c1ccc(F)cc1 (centres undefined) returned NPYLR7 agonist 2 and NPYLR7 agonist max-min 1.
COc1cc(Cl)c(C)cc1NC(=O)Cc1cc(C)on1 was read as NPYLR7 agonist 7 and NPYLR7 agonist max-min 0.
`O=C(NNC(=O)C1COc2ccccc2O1)c1cnccn1` (centres undefined) gave NPYLR7 agonist -2 and NPYLR7 agonist max-min -4.
`CS(=O)(=O)c1ccc2nc(NC(=O)c3cc(Cl)ccc3Cl)sc2c1` gave NPYLR7 agonist 0 and NPYLR7 agonist max-min 2.
For COc1ccc(C2NC(=O)NC(C)=C2C(N)=O)c2ccccc12 (centres undefined) the results were NPYLR7 agonist -2 and NPYLR7 agonist max-min -1.
For O=C1NC(c2ccccc2)=C(c2ccc3ccccc3n2)C(c2ccccc2)N1 (centres undefined) the results were NPYLR7 agonist -7 and NPYLR7 agonist max-min -10.
Screening COc1ccc2c(c1)CCCN2C(=O)c1cc(Br)c[nH]1 returned NPYLR7 agonist 4 and NPYLR7 agonist max-min 2.
`Cc1ccc(-c2nc3ccccc3o2)cc1NC(=O)c1ccc(Br)cc1` gave NPYLR7 agonist -5 and NPYLR7 agonist max-min -10.
Screening Cc1nnc(SCC(=O)Nc2cccc(-c3nc4ccccc4s3)c2)s1 returned NPYLR7 agonist -1 and NPYLR7 agonist max-min 4.
For CCc1c(C)nc(-c2cccc(F)c2)nc1N1CCN(C(=O)C(C)(C)CCl)CC1 the results were NPYLR7 agonist 26 and NPYLR7 agonist max-min 29.

Structural class, the compounds so far with two or more sulfur atoms
For CCc1noc(C(C)Sc2nnc(C3CC3)s2)n1 (centres undefined) the results were NPYLR7 agonist -1 and NPYLR7 agonist max-min -2.
For CCS(=O)(=O)CCSc1n[nH]c(-c2ccc(Cl)cc2)n1 the results were NPYLR7 agonist 9 and NPYLR7 agonist max-min 9.
`O=C(COCc1ccccc1)Nc1nnc(SCC(=O)c2ccc(F)c(F)c2)s1` gave NPYLR7 agonist 21 and NPYLR7 agonist max-min 30.
Screening Cc1oc(NC(=O)CN2C(=O)S/C(=C/c3cccs3)C2=O)c(C#N)c1C returned NPYLR7 agonist 10 and NPYLR7 agonist max-min 5.
`COc1ccc(OCc2nc(CSc3ccc(Cl)cc3)cs2)cc1` gave NPYLR7 agonist 2 and NPYLR7 agonist max-min 1.
Cc1nc2sccn2c1-c1csc(Nc2cccc(O)c2)n1 was read as NPYLR7 agonist -13 and NPYLR7 agonist max-min -20.
O=C(C=C1SCCS1)C1CC1c1ccccc1 (centres undefined) was read as NPYLR7 agonist 14 and NPYLR7 agonist max-min 18.
For CC(C)Cn1c(CN2CCSCC2)cnc1S(=O)(=O)CC1CCCO1 (centres undefined) the results were NPYLR7 agonist 12 and NPYLR7 agonist max-min 4.
Screening O=S1(=O)CC2NC(=S)N(CCc3cc4ccccc4[nH]3)C2C1 (centres undefined) returned NPYLR7 agonist 2 and NPYLR7 agonist max-min 43.
`CS(=O)(=O)c1ccc2nc(NC(=O)c3cc(Cl)ccc3Cl)sc2c1` gave NPYLR7 agonist 0 and NPYLR7 agonist max-min 2.
Screening Cc1nnc(SCC(=O)Nc2cccc(-c3nc4ccccc4s3)c2)s1 returned NPYLR7 agonist -1 and NPYLR7 agonist max-min 4.

Screening results (PubChem)
